ugtP null kill – compounds lethal to S. aureus RN4220 ugtP deletion mutant; OD600 growth, 16 h; some inactives read as strong as hits; growth inhibition, % (no concentration beside the values); 330,000 tested, 0.54% active; AID 1259309;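 active = z-score under -3 and OD600 up to 0.15 on both plates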;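 also: plate controls were untreated wells for no effect and antibiotic for full effect; wells of about 80 µL received 100 nL stock; the first replicate is given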
BJeLR viability – kills HRASV12-expressing BJeLR cells. 300,000 tested, 0.17% active. AID 1554. BJeLR (HRASV12) viability, CellTiter-Glo ATP luminescence, 48 h; reference of the scale not given here. inhibition, % (no concentration beside the values);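 active = replicate mean above 50%; inconclusive = above 50% but judged a plate artefact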;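 also: 50 nL library stock added to about 25 µL; numbers are from one replicate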
Autofluor counter – counter-screen for toxin protease inhibitors: compound fluorescence; compound autofluorescence counterscreen, microsphere flow cytometry; active compounds read high; fluorescence intensity (concentration not given with the values); 360,000 tested, 3.1% active;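 active = at least 3 SD above the mean of all compounds, about 16000 in these data; inconclusive = too few beads counted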;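 also: 100 nL of 1 mM stock went into each well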
PrP 5UTR inh – suppresses PrP 5' UTR mRNA reporter expression. AID 488862. cell-based PrP 5' UTR mRNA reporter, plate reader. inhibition, % (concentration not given with the values). 340,000 tested, 0.35% active;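 active = every replicate at 50% or more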;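 also: 0 = median of the neutral control wells; tested in H4 reporter cells; numbers are from one replicate; inactives centre near -14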
Mtb hypoxia rep – inhibitors of hypoxia-regulated fluorescent reporter in Mycobacterium tuberculosis; M. tuberculosis hypoxia-regulated fluorescent reporter, fluorescence; fluorescence inhibition, % (test concentration not listed); 300,000 tested, 0.1% active; AID 1159583;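 active = 35 to 45% if threefold the growth effect, above 45% if 1.5-fold the growth effect; inactive = the rest, general growth blockers included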;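 also: wells of about 50 µL received 100 nL stock; 0% = vehicle wells and 100% = reference inhibitor wells; whole bacteria with a GFP reporter of the hypoxia response; strong numbers were not always called active; many hits fall short of the cut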
RN4220 kill – kills Staphylococcus aureus RN4220 | S. aureus RN4220 growth, OD600, 16 h | inhibition, % (test concentration not listed) | 330,000 tested, 0.33% active | AID 1259311;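 active = z-score of -3 or lower and OD600 up to 0.18 on both plates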;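 also: plate controls were untreated cells for no effect and reference antibiotic for full effect; stock transfer was 100 nL into about 80 µL; one replicate is shown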
Mtb hypoxia rep growth – recorded beside Mtb hypoxia rep, whose call it bears; growth inhibition, %; measured here: M. tuberculosis growth (absorbance);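 0% = vehicle and 100% = reference antibiotic; read after six days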
* = called active by the depositor; ? = inconclusive; . = no result given. Hits appear at their usual frequency. Share with any hit: about 4%.

Each structure is followed by: ugtP null kill	BJeLR viability	Autofluor counter	PrP 5UTR inh	Mtb hypoxia rep	Mtb hypoxia rep growth	RN4220 kill
1) COC(=O)Nc1ccc(SCC(=O)c2ccc(Cl)cc2)cc1
    1	-5	4398	-7	0	9	5.9
2) CCOc1ccc2nc(SCC(=O)N(CC(C)C)c3c(N)n(Cc4ccccc4)c(=O)[nH]c3=O)[nH]c2c1
    .	13	6557	4	.	.	.
3) COc1cc(NC(=O)CCCn2c(=S)[nH]c3ccccc3c2=O)cc(OC)c1OC
    -67	8	4345	-12	12	5	4.7
4) CCOc1ccccc1NC(=O)Cn1c(=O)c2ccccc2n(CC)c1=O
    -1	-11	10642	-30	1	1	4.2
5) O=C(CCCc1ccccn1)c1ccc(-c2ccccc2)cc1
    4	.	3853	-83	8	12	4.9
6) Cc1ccc(S(=O)(=O)N2CCCC2)cc1S(=O)(=O)N1CCCC1
    5	-4	3696	-8	6	8	6.2
7) CN(C(=O)CSc1ncccn1)C1CCS(=O)(=O)C1 (stereo not drawn)
    5	1	?	-17	6	-1	3.7
8) CC(=O)NC1CC2CCCC(C1)N2CC(=O)N1CCCc2ccccc21 (stereo not drawn)
    3	-6	4092	-26	14	7	3.4
9) CN1CCC(Oc2ccccc2Sc2ccccc2)CC1
    5	-5	2045	-4	11	12	1.5
10) CC[C@]12c3[nH]c4ccc(Cl)cc4c3CCN1C(=O)[C@@H](CC(=O)NCc1ccco1)C[C@@H]2C(=O)N1CCN(C(=O)C2CC2)CC1
    9	.	3061	-18	6	5	1.5
11) COc1ccc(NC(=S)N(Cc2ccccn2)Cc2ccccc2Cl)cc1
    -4	8	4525	-8	3	6	1.8
12) Cc1ccc(/C=C2\SC(=S)N(CCC(=O)NNC(=O)c3ccccc3O)C2=O)cc1
    -20	-4	6115	-6	0	-7	14
13) CN1CCN(NC(=O)c2ccc(Cl)c([N+](=O)[O-])c2)CC1
    0	5	2795	-5	.	.	-1.3
14) CCOC(=O)N1CCN(C(=O)COc2ccc3c(c2)C(=O)CC(C)(C)O3)CC1
    1	0	4941	-37	13	4	0.3
15) O=C(COc1cccc2c1CCN(Cc1ccc(Br)cc1)C2=O)N1CCOCC1
    16	-19	4058	-29	10	5	-0.9
16) N#CC1=C(N)NC(SCc2ccc(Cl)cc2)=C(C#N)C12CCCCC2
    15	-9	2508	1	0	-1	-5.3
17) Cc1ccc(O)c(-n2nc3ccccc3n2)c1
    -3	11	2051	-61	9	3	2.2
18) COCCCNC(=O)c1ccc(CS(=O)(=O)Cc2cccc(C)c2)o1
    7	12	10841	-17	5	6	3.7
19) Fc1ccc(-c2cc(C(F)(F)F)n3ncnc3n2)cc1
    -2	3	4387	-63	10	-2	3.3
20) C[C@H](CO)N1C[C@H](C)[C@@H](CN(C)C(=O)Nc2ccc(C(F)(F)F)cc2)Oc2ccc(NC(=O)C3CCCCC3)cc2C1=O
    2	.	3633	-12	-14	4	-0.3
21) NS(=O)(=O)c1ccc(CCNC(=O)CSc2nc3ccsc3c(=O)n2CCCCC(=O)O)cc1
    11	-3	4356	-1	9	12	7.7
22) COc1ccc(CCNC(=O)/C(C#N)=C/c2cccc(OCc3ccccc3)c2)cc1OC
    -5	-12	2053	-16	2	1	30
23) COc1ccc(C2=NCC(=S)Nc3ccc(Cl)cc32)cc1OC
    -12	6	5786	-8	11	1	14
24) NC(=O)c1ccsc1NC(=O)c1ccco1
    6	8	5321	-21	7	-4	-2.2
25) Cc1c(Cl)c([N+](=O)[O-])nn1CCCC(=O)O
    3	-13	4256	-21	11	8	7.3
26) O=C(/C=C/c1ccc(Cl)cc1)NCCSc1ccccc1
    10	-11	19211*	-9	3	8	-1.0
27) O=C(NCc1ccc(F)cc1)c1cnc(Cl)c(Cl)c1
    9	0	3674	-20	.	.	0.2
28) C/C(=N\Nc1ccc(C(=O)O)cc1)c1ccc(Br)cc1
    .	1	4266	-18	.	.	.
29) c1ccc(Nc2ccc(Nc3ccccc3)cc2)cc1
    -7	.	5610	-40	21	14	-0.2
30) Cc1ccc2nc(SCC(=O)c3ccc(O)cc3O)[nH]c2c1
    -2	-7	3738	-49	-2	3	7.4
31) Cc1c(NC(=O)CSCc2ccco2)c(=O)n(-c2ccccc2)n1C
    2	1	3648	-16	-8	1	-2.3
32) Cc1ccc(-c2cc(C(=O)NCc3cnn(C)c3)c3cc(Br)ccc3n2)cc1
    3	11	2345	-36	4	-2	2.8
33) CCOc1ccc(NCC(=O)Nc2ccc(Cl)cc2C)cc1
    -8	-5	19405*	-47	22	28	7.8
34) CCn1c(C)nc2cc(S(=O)(=O)N3CCCCC3)ccc21
    9	7	4071	-5	5	-1	0.3
35) CNC(=S)N(Cc1ccc(OC)cc1)C1CC(=O)N(c2ccc(C(=O)OC)cc2)C1=O (stereo not drawn)
    -9	7	.	.	-9	0	5.9
36) C=CC(=O)NCc1ccc(-c2csnn2)cc1
    8	1	3617	-29	-1	3	3.3
37) COC(c1ccccc1)c1nnc(CCC(=O)NCCCc2ccccc2)o1 (stereo not drawn)
    17	-1	4922	-17	3	0	5.9
38) Cc1cc(F)ccc1NCc1cc2c(cc1[N+](=O)[O-])OCO2
    -18	4	3883	-4	4	8	-7.7
39) Cc1nc(N2CCOCC2)c(C#N)c2c1COC(C)(C)C2
    -1	4	20542*	-50	-14	-6	-2.4
40) COc1ccc(C=NNC(=O)c2cc3c(ccc4ccccc43)o2)c(OC)c1
    -5	.	.	.	-6	9	0.1
41) Brc1cccc(-c2nnc(-c3ccccc3)o2)c1
    -8	.	4562	-152	7	16	14
42) C=CCn1c(=C2C(=O)N(CC)C(=S)N2C)sc(=C2Sc3cc(OC)ccc3N2C)c1=O
    2	.	.	.	-5	-23	2.1
43) O=C(Nc1ccc(Br)cc1)C1Cc2ccccc2O/C1=N\O (stereo not drawn)
    .	5	3877	-58	.	.	.
44) CC(=O)Nc1ccc(Oc2nc(C(F)(F)F)nc3ccccc23)cc1
    2	10	2855	-9	2	-6	2.6
45) CN1CCC(OC(=O)COc2ccc(Br)cc2)CC1
    13	4	3533	-9	-6	-5	4.0
46) Cc1cc(C(=O)OCC(=O)Nc2ccccc2C)c(C)o1
    4	.	5551	3	8	8	1.2
47) CC(=O)Nc1nc2ccccc2n1Cc1ccc(C)cc1
    0	2	3279	0	6	7	10
48) Cc1cc(C)c(NC(=O)CN(C2CCCCC2)C2CCCCC2)c(C)c1
    7	-5	9647	-42	6	-9	13
49) COC(=O)c1ccc(C)c(-n2c(C)cc(C=O)c2C)c1
    3	4	2508	0	6	5	1.6
50) Cc1[nH]n(-c2ccccc2)c(=O)c1C(c1ccccc1C(=O)O)c1c(C)[nH]n(-c2ccccc2)c1=O
    3	-13	9158	-6	4	-3	2.7
51) CCC1=NN(C(=O)COc2ccccc2C)C(O)(c2ccncc2)C1 (stereo not drawn)
    0	-8	2602	-20	15	7	6.8
52) COC(=O)C1=C(C)N(Cc2ccccc2)C(=O)NC1c1cccc(F)c1 (stereo not drawn)
    -10	.	.	.	8	5	6.7
53) O=C(c1ccc([N+](=O)[O-])s1)N1CCN(c2ccccc2)CC1
    15	-1	2491	-2	8	5	27
54) COc1cccc(CN(C)C(=O)c2cccc(S(=O)(=O)N3CCN(Cc4ccccc4)CC3)c2)c1OC
    -4	.	?	-9	-2	2	-1.9
55) Nc1oc2ccccc2c(=O)c1-c1ccc2c(c1)OCO2
    -6	-16	4061	-57	17	6	-1.4
56) CCOc1ccc(-c2n[nH]c(=S)o2)cc1
    -5	-2	3472	-25	-1	5	3.9
57) CCOC(=O)/C(CCCN(CC)CC)=N\O
    .	-11	2700	-16	.	.	.
58) O=c1oc2ccccc2c(NCc2ccccc2)c1[N+](=O)[O-]
    6	8	10138	-14	12	6	3.4
59) CN(CC1CCCN(CCc2ccc(Cl)cc2)C1)C(=O)C(=O)c1ccco1 (stereo not drawn)
    8	-5	4610	-21	4	3	-0.4
60) O=C(COc1ccccc1[N+](=O)[O-])NN=Cc1ccccn1
    4	.	.	.	3	9	0.8

Exported as a markdown table: part of the list above
| No. | molecule | ugtP null kill | BJeLR viability | Autofluor counter | PrP 5UTR inh | Mtb hypoxia rep | Mtb hypoxia rep growth | RN4220 kill |
| --- | --- | --- | --- | --- | --- | --- | --- | --- |
| 41 | Brc1cccc(-c2nnc(-c3ccccc3)o2)c1 | -8 | . | 4562 | -152 | 7 | 16 | 14 |
| 48 | Cc1cc(C)c(NC(=O)CN(C2CCCCC2)C2CCCCC2)c(C)c1 | 7 | -5 | 9647 | -42 | 6 | -9 | 13 |

Next records
Each structure is followed by: ugtP null kill	BJeLR viability	Autofluor counter	PrP 5UTR inh	Mtb hypoxia rep	Mtb hypoxia rep growth	RN4220 kill
61) CCC(=O)Nc1ccc(C(=O)NNC(=O)c2ccc([N+](=O)[O-])cc2)cc1
    6	-10	6290	-27	1	4	8.8
62) O=C1OC(c2ccccc2)c2ccc3ccccc3c21 (stereo not drawn)
    3	-6	2305	-18	6	12	5.4
63) Cc1[nH]c2c(C)cccc2c(=O)c1Br
    -7	9	2879	-26	7	14	6.4
64) COc1ccccc1C(=O)CSc1cccc[n+]1[O-]
    1	-13	4073	-19	10	3	9.4
65) COC(=O)c1ccc(C2=NOC(C)(c3sc(-c4ccc(Cl)cc4)nc3C)C2)cc1 (stereo not drawn)
    -4	-1	4161	-27	1	6	-5.3
66) O=C(OCc1ccc([N+](=O)[O-])cc1)c1cnc(Cl)c(Cl)c1
    8	0	4048	-12	1	10	1.1
67) N#C/C(=C\c1ccccc1)C(=O)NNS(=O)(=O)c1cccc([N+](=O)[O-])c1
    3	.	3740	-8	7	3	2.3
68) Cc1ccccc1C(=O)N1CCN(c2ccc(NC(=O)c3cccnc3Cl)cc2)CC1
    2	-6	5001	5	13	2	2.5
69) COC(=O)c1c(NC(=O)C2C3CCC(O3)C2C(=O)O)sc2c1CCCCCC2 (stereo not drawn)
    16	-1	2101	-22	15	5	19
70) COc1cc(Cn2c(N)c(C(=O)NCc3ccco3)c3nc4ccccc4nc32)cc(OC)c1OC
    71	-4	5650	-12	-16	-9	-2.6
71) CCCCn1c(SCC(=O)NC(C)CC)nc2ccc(N3CCOCC3)cc2c1=O (stereo not drawn)
    -4	-6	10133	-6	-3	4	0.7
72) C[C@@H](C(=O)N1CCN(c2ccccc2)CC1)N1C(=O)C2CC=CCC2C1=O (stereo partly drawn)
    4	.	3387	-14	14	8	6.5
73) O=C(CSc1nc2ccccc2[nH]1)NN=C/C=C/c1ccccc1[N+](=O)[O-]
    97*	.	.	.	1	5	98*
74) Clc1ccccc1N1CCN(Cc2ccco2)CC1
    10	-4	3623	-14	5	6	5.7
75) Cc1ccccc1NC(=S)NC(NC(=O)N(C)C)C(Cl)(Cl)Cl (stereo not drawn)
    -1	11	11427	-9	-1	-2	0.6
76) O=C1CSC(c2ccc(Cl)cc2)N1 (stereo not drawn)
    4	4	11128	-22	1	1	2.3
77) Cc1ccc(Cn2c(CN3CCN(C(=O)c4ccco4)CC3)nc3c2c(=O)n(C)c(=O)n3C)cc1
    -4	-3	9861	-15	-1	10	2.1
78) COc1ccc(-c2csc(=Nc3c(C)n(C)n(-c4ccccc4)c3=O)n2C(C)(C)C)cc1
    8	5	9914	-8	17	8	2.9
79) CCOC(=O)c1cccc(NC(=O)CSc2nnnn2CC)c1
    -7	8	4116	-16	-8	3	-4.2
80) COc1ccc(-n2c(O)c(Cc3ccccc3)c(=O)n3nc(-c4ccccc4)c(=O)cc23)cc1
    -2	0	2854	-8	2	7	4.2
81) Cc1ccc(S(=O)(=O)NCCC(=O)NC2CCCCCC2)cc1
    18	.	4818	-11	7	-3	5.0
82) O=C(O)c1ccc(S(=O)(=O)Nc2cccc(CP(=O)(c3ccccc3)c3ccccc3)c2)cc1
    6	7	5644	-22	-1	-1	-0.8
83) N#C/C(=C/c1cccn1-c1cccc(C(=O)O)c1)c1ccc(Cl)cc1
    .	9	4219	-31	.	.	.
84) CCC(C)N(CCNC(=O)c1ccc2c(c1)NC(=O)c1ccccc1S2)C1CCCCC1 (stereo not drawn)
    -2	2	5832	3	-3	7	-3.3

A draw from above in order of length of the SMILES, largest number first:
Each structure is followed by: ugtP null kill	BJeLR viability	Autofluor counter	PrP 5UTR inh	Mtb hypoxia rep	Mtb hypoxia rep growth	RN4220 kill
18) COCCCNC(=O)c1ccc(CS(=O)(=O)Cc2cccc(C)c2)o1
    7	12	10841	-17	5	6	3.7
28) C/C(=N\Nc1ccc(C(=O)O)cc1)c1ccc(Br)cc1
    .	1	4266	-18	.	.	.
25) Cc1c(Cl)c([N+](=O)[O-])nn1CCCC(=O)O
    3	-13	4256	-21	11	8	7.3

High-throughput results from PubChem.
